High-throughput results deposited in PubChem by National Center for Advancing Translational Sciences (NCATS).
TRPV1 potentiator = HTS Assay for Compounds that Act as Potentiators of the Vanilloid Receptor 1 | AID 540277, 2011 | actives 0.02% (n = 320,000) | potentiation, % at 8.33 µM | TRPV1-expressing cells, Fluo-8 calcium influx, capsaicin EC20 potentiation; host cell line not named in the record; control for the full effect not named in the record | Transient receptor potential cation channel subfamily V member 1 (Homo sapiens), Q8NER1; active means potentiation above 80%; inconclusive means 30% to 80%; inactive means below 30%; also: 0% is about no effect
Target sequence (Q8NER1 whole entry, looked up): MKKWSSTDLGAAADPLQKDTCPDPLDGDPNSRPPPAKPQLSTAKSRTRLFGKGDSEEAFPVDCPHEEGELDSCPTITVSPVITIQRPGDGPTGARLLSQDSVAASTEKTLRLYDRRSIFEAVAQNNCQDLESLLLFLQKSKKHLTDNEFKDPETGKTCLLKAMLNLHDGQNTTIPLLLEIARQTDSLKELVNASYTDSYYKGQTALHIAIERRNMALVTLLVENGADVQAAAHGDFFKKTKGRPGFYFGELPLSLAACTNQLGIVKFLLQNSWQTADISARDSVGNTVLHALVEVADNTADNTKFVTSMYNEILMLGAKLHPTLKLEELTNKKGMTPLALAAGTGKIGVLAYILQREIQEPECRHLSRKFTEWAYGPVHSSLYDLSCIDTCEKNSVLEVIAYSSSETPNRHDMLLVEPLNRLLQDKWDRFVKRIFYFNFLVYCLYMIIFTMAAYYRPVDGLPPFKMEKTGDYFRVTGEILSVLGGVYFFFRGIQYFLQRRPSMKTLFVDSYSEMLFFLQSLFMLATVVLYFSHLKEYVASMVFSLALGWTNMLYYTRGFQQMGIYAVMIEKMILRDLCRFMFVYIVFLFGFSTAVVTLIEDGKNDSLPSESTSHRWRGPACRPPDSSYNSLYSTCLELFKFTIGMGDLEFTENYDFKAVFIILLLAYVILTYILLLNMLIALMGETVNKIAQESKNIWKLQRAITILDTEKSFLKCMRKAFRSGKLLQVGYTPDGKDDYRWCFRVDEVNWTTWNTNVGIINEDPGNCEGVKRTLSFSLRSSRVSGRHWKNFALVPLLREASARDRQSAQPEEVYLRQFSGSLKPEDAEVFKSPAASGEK
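Cells expressing TRPV1 were dye-loaded with Fluo-8 and read kinetically: 10 s baseline, 3 min after compound (agonist portion), then 2 min after EC20 capsaicin (allosteric enhancer portion). Calcium-bound dye fluorescence at 480/520 nm.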
Menin MLL FP FL = qHTS Assay for Inhibitors Targeting the Menin-MLL Interaction in MLL Related Leukemias: Competition With Fluorescein Labeled MLL-derived Peptide; Fluorescence polarization, fluorescein-MLL peptide displacement from menin; FP activity change, % at 61.4 µM; 290,000 tested, under 10 active; AID 1766, 2009; inconclusive = falling polarisation curve, or a change in total fluorescence; inactive = total fluorescence flat and polarisation flat or rising; no compound was filed as active; the % refers to the polarisation; negative = inhibition;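 also: % of control where 0% means no effect; inhibitors lower the polarisation; unlabelled MLL peptide was the positive control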
gsp antagonist = qHTS for Antagonists of gsp, the Etiologic Mutation Responsible for Fibrous Dysplasia/McCune-Albright Syndrome: qHTS. gsp-mutant cells, cAMP HTRF, 30 min; control for the full effect not named in the record. Potency, µM (highest dose often 76.9 µM), for the others: at the highest dose activity change, negative = inhibition, most hits filed as inhibitors. actives 0.4% (n = 340,000); active = falling curve of any shape with a large fitted effect; inconclusive = falling curve, mostly with a smaller effect; inactive = flat or rising curve; cell line not stated here;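 also: intracellular cAMP measured with PDE inhibitor Ro 20-1724 present during compound exposure; potency is read from the fitted curve at half-maximal effect; % is scaled to controls: 0 for no effect and ±100 for the full control effect; nearly all actives have a fitted effect of over 65% in size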
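Cells, 2000/well, grown 16–24 h in DMEM 10% FBS with 0.5 mg/ml G418, then compounds plus […] (300 uM addition stock), 30 min at 37C. cAMP read by HTRF (cAMP-d2 and anti-cAMP antibody-K in lysis buffer) after 30 min RT.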
gsp agonist = qHTS for Agonist of gsp, the Etiologic Mutation Responsible for Fibrous Dysplasia/McCune-Albright Syndrome: qHTS; gsp mutant cells, cAMP HTRF, 30 min; control for the full effect not named in the record; actives 0.13% (n = 340,000); Potency, µM (titrated, usually from 76.9 µM), inactives show at the highest dose activation (cAMP increase), actives largely listed as activators; AID 624287, 2012; active = well fitted activation curve with a large enough effect; inconclusive = small, poorly fitted or top-dose-only effect, or another doubt; inactive = no such curve, though single readings can be large or run the other way; cell line not stated here;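 also: phosphodiesterase inhibitor Ro 20-1724 added with compounds to block cAMP breakdown; potency is read from the fitted curve at half-maximal effect; nearly all actives have a fitted effect of over 60% in size; about a fifth of the inactives were tested at one dose only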
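Cells in DMEM/10% FBS with G418 were pretreated with compounds in DMSO plus […] (300 uM stock) for 30 min at 37C. cAMP was measured by HTRF (cAMP-d2 plus anti-cAMP antibody-K) after 30 min at room temperature.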
CtBP-E1A inh = qHTS Assay for Inhibitors of the CtBP/E1A Interaction | CtBP / adenovirus E1A interaction (AlphaScreen) | AlphaScreen GST-E1A/His-CtBP binding, 1536-well; stronger effect = lower value; control for the full effect not named in the record | activity change, % (no concentration beside the values) | actives 0.49% (n = 340,000); in the data active means activity change below about -65%; inconclusive means about -30% to -65%; inactive means above about -30%; also: % is scaled to controls: 0 for no effect and ±100 for the full control effect; compound concentration not given in the record
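GST-E1A and His-tagged CtBP (125 nM each as 5X stock) were preincubated with pin-transferred compound for 2 h at 37 °C in the dark, then glutathione donor and nickel acceptor beads were added for 1 h before AlphaScreen reading.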
ClpP mod = qHTS Assay for Activators of ClpP; actives 1.9% (n = 340,000); Potency, µM (top dose mostly 57.5 µM), without a hit: at the top dose activity change, negative = active; purified B. subtilis ClpP, FRET peptide cleavage, 20 min; ATP-dependent Clp protease proteolytic subunit (Bacillus subtilis (strain 168)), P80244; active = well fitted falling curve with a large enough effect; inconclusive = small, poorly fitted or top-dose-only effect; inactive = no such curve, though single readings can be large or run the other way; also: potency is read from the fitted curve at half-maximal effect; the source files actives as falling curves though it sought activators and does not explain the sign; nearly all actives have a fitted effect of over 65% in size; many hits overshoot -100%
Target sequence (P80244 whole entry, looked up): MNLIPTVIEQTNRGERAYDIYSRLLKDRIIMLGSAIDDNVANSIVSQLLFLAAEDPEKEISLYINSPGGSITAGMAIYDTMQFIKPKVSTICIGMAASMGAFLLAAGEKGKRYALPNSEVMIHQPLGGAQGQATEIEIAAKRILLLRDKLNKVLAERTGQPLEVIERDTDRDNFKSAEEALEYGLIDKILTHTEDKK
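Buffer: 100 mM Tris/HCl pH8, 100 mM KCl, 0.05% low protease BSA, 2.5% glycerol, 0.01% Tween-20. ClpP 10 microg/mL final; 20 min RT; delta FRET normalized to ADEP and DMSO controls.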
Sfp PPTase inh = qHTS Assay for Inhibitors of Bacillus subtilis Sfp phosphopantetheinyl transferase (PPTase); actives 3.5% (n = 310,000); Potency, µM, without a hit: max response, negative = inhibition, usual class: inhibitors; Biochemical Sfp PPTase activity, qHTS; AID 1490, 2009; active = well fitted inhibition curve with a large enough effect; inconclusive = small, poorly fitted or top-dose-only effect, or another doubt; inactive = no such curve, though single readings can be large or run the other way;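 also: the enzyme is Sfp with the accession as filed and its product quenches rhodamine fluorescence; potency is read from the fitted curve at half-maximal effect; 0% = enzyme reaction without inhibitor and -100% = no enzyme wells; top concentration of the series not given in the record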
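Fluorescence-quenching assay with 15 nM Sfp, 5 uM rhodamine-CoA and 12.5 uM BHQ-2-labelled ybbR peptide in pH 7.6 Hepes/MgCl2 buffer. Enzyme was pre-incubated with compound for 15 min at room temperature. Rate was taken from the 30-min fluorescence change (525/598 nm).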
The depositor's hits bear a star; ? = inconclusive; . = not tested or not shown; [ ] = dose if it differs, or a comment.

SMILES	TRPV1 potentiator	Menin MLL FP FL	gsp antagonist	gsp agonist	CtBP-E1A inh	ClpP mod	Sfp PPTase inh
CCc1ccc(OCC(=O)N/N=C/c2ccc(OS(=O)(=O)c3ccc(C)cc3)c(OC)c2)cc1	8	0.9	1%	-79%[inhibitor]	.	0.9%	11%
CCOC(=O)c1ccc2c(c1)n(CC)c(/C=C/Nc1ccccc1)[n+]2CC	2	4.0	0%	?	44	-1.8%	0%
C=CCNc1nc(NCCN2CCOCC2)nc(OC)n1	-5	2.8	6%	16%	-4	-19%	-5%
CCOc1ccc(NC(=O)CN2CCN(c3ccccc3C)CC2)cc1S(=O)(=O)N1CCCC1	-1	.	-4%	22%	6	-1.4%	.
CCOC(=O)c1[nH]c(C)c(C(=O)OCC(=O)NCc2ccc(Cl)cc2)c1C	2	.	15%	0%	.	-1.7%	.
O=c1[nH]c(N2CCOCC2)nc2ncn(Cc3ccccc3)c12	-3	1.1	12%	-19%	-6	-4.0%	7%
CCCCn1c(-c2sccc2C)n[nH]c1=S	11	-3.3	-1%	-2%[15.4 µM]	-3	.	-25%
O=C(N/N=C/c1ccc(O)c(O)c1O)/C(=C/c1ccc([N+](=O)[O-])cc1)NC(=O)c1ccccc1	4	-0.9	-28%	8%[15.4 µM]	-94*	1.1%	45µM*
CC(C)(C)NC(=O)COc1ccc(CNCCc2ccccc2)cc1	?	-3.6	11%	-28%	11	.	17%
CSc1nsc(SCC(=O)Nc2ccc(O)c(C(=O)O)c2)n1	-2	-1.8	10%	-27%	-16	?	-28%
CC(=O)Nc1ccc(S(=O)(=O)Nc2ccccc2C(=O)NCc2cccnc2)cc1	12	-5.9	10%	-1%[15.4 µM]	5	.	8%
COc1cccc(CNC(=O)C2CCN(S(=O)(=O)c3c(C)nn(C)c3C)CC2)c1	-2	4.3	-2%	-22%	6	0.5%	10%
CC1CCN(C(=O)COc2ncnc3ccccc23)CC1	2	5.1	5%	-6%[15.4 µM]	5	.	12%
O=C(C1CCC(=O)N(C2CCCCCC2)C1)N1CCN(c2ccccc2Cl)CC1 (centres undefined)	-43	-2.4	-9%	0%	.	0.9%	3%
O=C(CC1CCCC1)OCn1nnc2ccccc2c1=O	-24	-0.9	2%	-45%[inhibitor]	15	0.3%	14%
O=C(CC1C(=O)NCCN1Cc1ccccc1C(F)(F)F)NCCc1ccccn1 (centres undefined)	0	-19	4%	-12%	.	-12%	5%
Cc1cc(NC(=O)CSc2nnc(C)c(=O)[nH]2)no1	6	2.5	6%	-19%	1	-0.4%	12%
CCO/C=C1\C(=O)N(c2ccccc2)C(=O)c2ccccc21	-2	5.3	-4%	-6%	5	32µM*	-10%
O=C1C(=O)N(Cc2ccccc2)C(=O)N1CCOc1ccccc1	-1	-4.8	4%	-2%[15.4 µM]	-1	.	10%
O=C(O)c1cc(N/N=C/c2ccc(-c3ccc(F)cc3)o2)ccc1Cl	-14	15	-32%	-1%[15.4 µM]	-22	.	-11%
CCN1CCCC1CNC(=O)c1ccc2c(c1)N(Cc1ccccc1F)C(=O)c1ccccc1S2(=O)=O (centres undefined)	8	.	1%	?	-13	-1.8%	2%
CCc1ccccc1NC(=O)c1ccc2c(c1)CCN2S(C)(=O)=O	-4	-5.7	-2%	-15%	6	-1.3%	11%
NS(=O)(=O)c1cccc(NC(=O)CSc2nc3ccccc3c(=O)n2Cc2ccco2)c1	.	.	-5%	-21%	-16	.	.
CCCCn1c(NS(=O)(=O)c2ccc(C)cc2)c(S(=O)(=O)c2ccccc2)c2nc3ccccc3nc21	4	22	31%	?	-4	25µM*	12%
C=CCN(Cc1cccc(OC)c1OC)C(=O)Oc1ccccc1	-9	.	6%	13%	15	0.0%	.
COC(=O)c1cc(-c2ccc(Cl)cc2)n[nH]1	-7	-0.4	45%[activator]	1%	.	1.1%	15%
Cc1cccc(CSCCNC(=O)CSCc2ccc([N+](=O)[O-])cc2)c1	-34	1.6	-25%	-21%	-14	2.5%	17%
COc1ccc(C(O)C(CN2CCOCC2)c2ccccc2)cc1 (centres undefined)	?	2.1	6%	5%	13	-0.5%	10%
COc1ccc(C(=O)NC(C)CCc2ccccc2)c(OC)c1 (centres undefined)	11	-21	-4%	18%	10	0.2%	-3%
CCOC(=O)C1CCN(Cc2ccc3ccccc3c2)CC1	1	3.9	8%	-1%	3	2.7%	17%
CC(C)[C@H](NC(=O)C1CCN(S(=O)(=O)c2ccc(F)cc2)CC1)C(=O)NCc1ccco1	3	.	7%	2%	2	2.5%	5%
CC(C)(C)c1csc(NC(=O)C2=COCCO2)n1	-15	.	-19%	9%[15.4 µM]	0	.	.
Cc1cccc(NC(=S)NCC(c2ccccc2)N(C)C)c1 (centres undefined)	-12	-0.2	5%	-9%	2	1.6%	?
CNc1ccc(/C=C(\CCC(=O)O)c2nc3ccccc3s2)cc1[N+](=O)[O-]	-7	-2.4	4%	-4%	-22	-3.9%	7%
COc1ccc(-n2c(-c3ccccc3)c[n+]3c2CCC3)cc1	0	0.4	-6%	-20%[15.4 µM]	1	2.6%	15%
O=C(NC1CCCC1)C1CC1c1ccccc1 (centres undefined)	-23	0.2	10%	-44%[inhibitor]	-8	-0.7%	7%
CCc1ccccc1NC(=O)CSc1nnc([C@@H](N)Cc2ccccc2)o1	17	6.7	7%	21%	-2	0.4%	50µM*
CCOc1cc(NC(=O)C2CC2)c(OCC)cc1NC(=O)c1cccc(F)c1	2	-0.4	17%	-9%[15.4 µM]	-10	.	6%
OC(COc1ccc(Cl)cc1)CN1C2=NCCCN2c2ccccc21 (centres undefined)	-10	-1.2	8%	4%	0	22µM*	14%
Cn1ccsc1=NC(=O)c1ccc(Cl)c([N+](=O)[O-])c1	-9	-1.8	-1%	-16%	.	1.7%	4%
Cc1cccc(-c2c(NC(=O)c3ccco3)oc3c(C)cccc3c2=O)c1	-9	.	-7%	22%	5	.	7%
COc1cccc(N=Nc2c(N)[nH][nH]c2=O)c1	-21	-3.4	?	-7%	-15	1.0%	-11%
c1ccc(COc2ncnc3c2ncn3CCCNCc2ccc3c(c2)OCO3)cc1	.	.	7%	.	-4	1.5%	.
COc1ccc(CCNC(=O)Nc2ccc3c(c2)OCO3)cc1OC	8	-0.7	-3%	23%	.	-1.2%	5%
CCC(=O)c1ccc(N2CCN(C(=O)COc3ccccc3F)CC2)c(F)c1	-8	3.5	-14%	7%	3	.	-15%
CC(=O)C1C(c2cccc([N+](=O)[O-])c2)C2C(C)=NN=C2CC1(C)O (centres undefined)	-2	-0.6	13%	-19%[15.4 µM]	-1	0.7%	19%
Cc1ccc(NC(=O)C(C)N2C(=O)C3C4CC(C(Br)C4Br)C3C2=O)cc1 (centres undefined)	-5	3.6	5%	-15%	-1	1.0%	0%
CCOc1cc(/C=C2\SC(=S)N(NC(=O)c3cccnc3)C2=O)ccc1O	13	?	-28%	?	?	.	-7%
CCCSc1nc(N2CCOCC2)c2c(c1C#N)CCCC2	-12	-0.8	-20%	17%	17	-11%	-21%
Cc1cccnc1NC(=O)CCc1nnc2ccc(N3CCC4(CC3)OCCO4)nn12	-16	0.1	-1%	?	.	-27%	15%

Rewritten with two lines to a compound: entries from further up.
Fields: TRPV1 potentiator	Menin MLL FP FL	gsp antagonist	gsp agonist	CtBP-E1A inh	ClpP mod	Sfp PPTase inh
CCOc1cc(/C=C2\SC(=S)N(NC(=O)c3cccnc3)C2=O)ccc1O
 : 13	?	-28%	?	?	.	-7%
CCCSc1nc(N2CCOCC2)c2c(c1C#N)CCCC2
 : -12	-0.8	-20%	17%	17	-11%	-21%

One compound at a time, as listed above. Order of screens: TRPV1 potentiator, Menin MLL FP FL, gsp antagonist, gsp agonist, CtBP-E1A inh, ClpP mod, Sfp PPTase inh
C=CCNc1nc(NCCN2CCOCC2)nc(OC)n1 as listed: -5, 2.8, 6%, 16%, -4, -19%, -5%
COc1ccc(-n2c(-c3ccccc3)c[n+]3c2CCC3)cc1 as listed: 0, 0.4, -6%, -20%[15.4 µM], 1, 2.6%, 15%
COc1ccc(CCNC(=O)Nc2ccc3c(c2)OCO3)cc1OC as listed: 8, -0.7, -3%, 23%, ., -1.2%, 5%
Cn1ccsc1=NC(=O)c1ccc(Cl)c([N+](=O)[O-])c1 as listed: -9, -1.8, -1%, -16%, ., 1.7%, 4%

(continued)
SMILES	TRPV1 potentiator	Menin MLL FP FL	gsp antagonist	gsp agonist	CtBP-E1A inh	ClpP mod	Sfp PPTase inh
O=C1Nc2ccccc2C(O)(C(=O)NCc2ccco2)N1c1ccccc1 (centres undefined)	-19	-6.0	-1%	11%	0	1.4%	11%
CC(N=C1NS(=O)(=O)c2ccccc21)C(=O)NCc1ccncc1 (centres undefined)	1	.	15%	37%[15.4 µM]	2	.	.
CC(NC(=O)COC(=O)/C=C/c1cccc(F)c1)c1ccccc1 (centres undefined)	.	.	-7%	14%[15.4 µM]	-3	0.1%	.
COc1cc2c(=O)n(C)c3ccccc3c2cc1OC	.	.	.	?	-8	-14%	.
CS(=O)(=O)N1CCN(c2ccccc2NC(=O)c2cc3ccccc3o2)CC1	4	7.1	?	9%[15.4 µM]	8	-2.9%	7%
